Source: PubChem BioAssay (National Center for Advancing Translational Sciences (NCATS))
TRPV1 PAM: enhances activation of the human vanilloid receptor TRPV1; TRPV1-expressing cells, Fluo-8 calcium influx, capsaicin EC20 potentiation; host cell line not named in the record; control for the full effect not named in the record; potentiation, % at 8.33 µM; Q8NER1; AID 540277; 320,000 compounds, 0.02% hits; active means potentiation above 80%; inconclusive means 30% to 80%; inactive means below 30%; note: 0% is about no effect
Target sequence (Q8NER1 whole entry, looked up): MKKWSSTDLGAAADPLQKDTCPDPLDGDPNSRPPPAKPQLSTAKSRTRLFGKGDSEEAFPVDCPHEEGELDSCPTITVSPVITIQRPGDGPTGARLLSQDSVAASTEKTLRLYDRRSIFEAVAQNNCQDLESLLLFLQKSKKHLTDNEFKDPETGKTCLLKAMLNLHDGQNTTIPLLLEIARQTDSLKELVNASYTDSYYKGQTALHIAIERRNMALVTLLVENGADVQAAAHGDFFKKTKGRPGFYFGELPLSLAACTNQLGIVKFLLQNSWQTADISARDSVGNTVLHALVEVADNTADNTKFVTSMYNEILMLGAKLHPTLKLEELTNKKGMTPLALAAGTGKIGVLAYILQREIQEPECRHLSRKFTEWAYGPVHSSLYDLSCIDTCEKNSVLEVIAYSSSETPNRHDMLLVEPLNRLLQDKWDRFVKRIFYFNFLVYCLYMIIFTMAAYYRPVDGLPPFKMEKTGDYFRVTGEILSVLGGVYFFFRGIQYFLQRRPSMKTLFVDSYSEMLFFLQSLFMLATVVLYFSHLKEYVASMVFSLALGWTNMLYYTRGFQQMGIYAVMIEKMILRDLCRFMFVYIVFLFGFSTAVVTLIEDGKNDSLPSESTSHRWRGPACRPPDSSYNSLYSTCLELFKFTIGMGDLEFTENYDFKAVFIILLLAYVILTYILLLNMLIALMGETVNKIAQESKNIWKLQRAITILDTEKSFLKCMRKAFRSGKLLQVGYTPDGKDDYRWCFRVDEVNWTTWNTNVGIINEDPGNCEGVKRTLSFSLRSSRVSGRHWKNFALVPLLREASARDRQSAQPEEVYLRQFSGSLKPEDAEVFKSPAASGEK
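Cells expressing TRPV1 were dye-loaded with Fluo-8 and read kinetically: 10 s baseline, 3 min after compound (agonist portion), then 2 min after EC20 capsaicin (allosteric enhancer portion). Calcium-bound dye fluorescence at 480/520 nm.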
TRPML1 inh: blocks the human TRPML1 channel | Q9GZU1 | TRPML1-inducible cells, Ca2+ dye fluorescence, FDSS; stronger effect = lower value; inhibition of EC80 agonist-evoked calcium signal | activity change, negative = inhibition, % (test concentration not listed) | 390,000 compounds, 0.02% hits; in the data active means activity change below about -50%; inconclusive means about -30% to -50%; inactive means above about -30%;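 note: stimulus is agonist 54-4 at its EC80 concentration; % is set by controls: 0 for no effect and ±100 for the full control effect; compound concentration not given in the record; the text of the record puts the active cut at -80%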
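TRPML1-DL cells, Tet-induced overnight (~16 h, 37 °C) at 1,500 cells/well, were loaded with Ca8 no-wash dye plus quencher for 45-90 min at room temperature. Compounds were pinned during FDSS kinetic reading; agonist 54-4 at EC80 (4 uM final) then added.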
Sfp inh: blocks B. subtilis Sfp PPTase activity; Q9F4F7; Biochemical Sfp PPTase activity, qHTS; Potency, µM, inactives show max response, negative = inhibition, usual class: inhibitors; 310,000 compounds, 3.5% hits; AID 1490; active = well fitted inhibition curve with a large enough effect; inconclusive = small, poorly fitted or top-dose-only effect, or another doubt; inactive = no such curve, though single readings can be large or run the other way;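 note: the enzyme is Sfp with the accession as filed and its product quenches rhodamine fluorescence; potency is the fitted concentration of half-maximal effect; 0% = enzyme reaction without inhibitor and -100% = no enzyme wells; top concentration of the series not given in the record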
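Step 1, compound plus 15 nM Sfp-PPTase, 15 min, room temperature. Step 2, add rhodamine-CoA (5 uM) and BHQ-2-YbbR (12.5 uM). Step 3, read 525/598 nm fluorescence at 0 and 30 min.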
gsp ag: agonists of gsp mutant (McCune-Albright syndrome). gsp mutant cells, cAMP HTRF, 30 min; control for the full effect not named in the record. Potency, µM (highest dose often 76.9 µM), for the others: top-dose activation (cAMP increase), hits mostly activators. 340,000 compounds, 0.13% hits. AID 624287; active = well fitted activation curve with a large enough effect; inconclusive = small, poorly fitted or top-dose-only effect, or another doubt; inactive = no such curve, though single readings can be large or run the other way; cell line not stated here;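 note: phosphodiesterase inhibitor Ro 20-1724 added with compounds to block cAMP breakdown; potency is the fitted concentration of half-maximal effect; nearly all actives have a fitted effect of over 60% in size; about a fifth of the inactives were tested at one dose only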
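Cells in DMEM/10% FBS with G418 were pretreated with compounds in DMSO plus […] (300 uM stock) for 30 min at 37C. cAMP was measured by HTRF (cAMP-d2 plus anti-cAMP antibody-K) after 30 min at room temperature.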
Menin MLL FP FL: displaces fluorescein MLL peptide from human menin | Fluorescence polarization, fluorescein-MLL peptide displacement from menin | FP activity change, % at 61.4 µM | 290,000 tested, under 10 active | AID 1766; inconclusive = falling polarisation curve, or a change in total fluorescence; inactive = total fluorescence flat and polarisation flat or rising; no compound was filed as active; the % refers to the polarisation; negative = inhibition;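 note: % of control where 0% means no effect; inhibitors lower the polarisation; unlabelled MLL peptide was the positive control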
gsp antagonist: antagonists of gsp mutant (McCune-Albright syndrome); gsp-mutant cells, cAMP HTRF, 30 min; control for the full effect not named in the record; Potency, µM (doses to about 76.9 µM), without a hit: top-dose activity change, negative = inhibition, usual class: inhibitors; 340,000 compounds, 0.4% hits; active = falling curve of any shape with a large fitted effect; inconclusive = falling curve, mostly with a smaller effect; inactive = flat or rising curve; cell line not stated here;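 note: intracellular cAMP measured with PDE inhibitor Ro 20-1724 present during compound exposure; potency is the fitted concentration of half-maximal effect; % is set by controls: 0 for no effect and ±100 for the full control effect; nearly all actives have a fitted effect of over 65% in size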
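Cells, 2000/well, grown 16–24 h in DMEM 10% FBS with 0.5 mg/ml G418, then compounds plus […] (300 uM addition stock), 30 min at 37C. cAMP read by HTRF (cAMP-d2 and anti-cAMP antibody-K in lysis buffer) after 30 min RT.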
ClpP mod: qHTS Assay for Activators of ClpP; Potency, µM (titrated, usually from 57.5 µM), for inactives: top-dose activity change, negative = active; purified B. subtilis ClpP, FRET peptide cleavage, 20 min; 340,000 compounds, 1.9% hits; AID 651965, 2013; ATP-dependent Clp protease proteolytic subunit (Bacillus subtilis (strain 168)), P80244; active = well fitted falling curve with a large enough effect; inconclusive = small, poorly fitted or top-dose-only effect; inactive = no such curve, though single readings can be large or run the other way; note: potency is the fitted concentration of half-maximal effect; the source files actives as falling curves though it sought activators and does not explain the sign; nearly all actives have a fitted effect of over 65% in size; many hits overshoot -100%
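FRET quenching reversal measured ClpP activation: 10 microg/mL B. subtilis ClpP at pH 8 with the FRET-FV decapeptide, read at 430 nm after 320 nm excitation. The 20-min minus 0-min signal was scaled between DMSO/no-enzyme wells and ADEP (5.8 microM final).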
The depositor's hits bear a star; ? = inconclusive; nt = no result given; [ ] = dose if it differs, or a comment. Compounds were not picked by outcome; overall some 4.9% were active at least once.

Results follow in this order: TRPV1 PAM	TRPML1 inh	Sfp inh	gsp ag	Menin MLL FP FL	gsp antagonist	ClpP mod
1) CCCCCCCCCOC(=O)C(CC(=O)O)N1CCOCC1 (stereo not drawn)
    6	8	?	9%	1.5	-5%	0.9%
2) S=c1c2[nH]cnc2ncn1CCSc1ncnc2nc[nH]c12
    nt	12	nt	31%	nt	11%	-4.6%
3) CC(=O)c1c(C)[nH]c(C(=O)OCC(=O)Nc2ccc([N+](=O)[O-])cc2Cl)c1C
    3	-2	4%	-33%[inhibitor]	-0.2	13%	-1.4%
4) Cc1ccc(C2CC(c3cccs3)=NN2C(=O)c2ccc(Br)o2)cc1 (stereo not drawn)
    -10	20	?	-1%	-1.5	?	?
5) NC(=O)c1ccc(NC(=O)COC(=O)c2ccc(Br)c(S(=O)(=O)N3CCOCC3)c2)cc1
    nt	-20	nt	?	nt	2%	-3.5%
6) C=CCn1c(CSCc2ccc(C)cc2)nnc1SCC(=O)NCc1ccccc1
    3	-3	22%	12%	-1.2	-7%	0.3%
7) COc1ccc(NC(=O)c2ccccc2SC)c(OC)c1
    2	12	11%	-5%	0.7	-11%	nt
8) O=C(Nc1nnc(C2CC2)s1)c1cc2c(s1)CCCCCC2
    -1	nt	13%	nt	3.1	nt	nt
9) COc1ccc(C(CNC(=O)c2ccc(OC)c(S(=O)(=O)N3CCCC3)c2)N2CCCC2)cc1 (stereo not drawn)
    -2	-7	nt	?	nt	4%	0.0%
10) CCOC(=O)C1C(=O)C=C(c2ccc(C)cc2)CC1c1ccco1 (stereo not drawn)
    -15	17	?	1%	-3.5	-19%	0.1%
11) CCOC(=O)Cc1cc(=O)n2[nH]cc(-c3cccc(Br)c3)c2n1
    9	16	16%	-1%[15.4 µM]	1.3	-7%	nt
12) CC(=O)c1c(C)[nH]c(C(=O)CSc2nc3ccccc3c(=O)n2CCCN2CCOCC2)c1C
    -13	0	1%	17%	2.5	1%	-7.5%
13) O=C(Nc1nc2ccc([N+](=O)[O-])cc2s1)c1c(F)cccc1F
    -6	-1	17%	-8%[15.4 µM]	5.1	-16%	?
14) CSc1nc(C)cc(Oc2ccc(OCC(N)=O)nn2)n1
    0	4	0%	-2%[15.4 µM]	-1.2	1%	0.3%
15) COc1ccc(S(=O)(=O)N2CCC(C(=O)NCC(=O)Nc3c(C)cccc3C)CC2)cc1OC
    nt	-26	nt	-32%[inhibitor]	nt	12%	-3.7%
16) COc1c(C)cc(C(=O)C2CCCN(C(=O)c3ccoc3)C2)cc1C (stereo not drawn)
    14	2	-2%	-8%	1.9	0%	nt
17) O=C(OCN1C(=O)C(=O)c2ccccc21)c1ccc(Cl)cc1
    13	-8	5%	?	0.2	10%	-0.3%
18) CCc1ccc(OCC(=O)NC(C)C)cc1
    3	5	6%	3%	-3.6	12%	0.4%
19) CCN(CC)CCC(c1ccc(N(C)C)cc1)c1c(OC)cc(OC)c2c(C)cc(=O)oc12 (stereo not drawn)
    nt	-2	-11%	nt	0.9	nt	nt
20) Cc1ccc(NC(=O)CSc2nnc(CN3CCOCC3)n2-c2ccccc2)cc1
    -12	-13	13%	-48%[inhibitor]	-2.4	9%	1.2%
21) COc1ccccc1N1CCN(C(=O)c2ccccc2SCC(=O)NCc2ccco2)CC1
    12	-15	nt	1%	nt	0%	-2.6%
22) Cc1ccc2c(n1)sc1c(N)ncnc12
    -1	-5	3%	9%	1.1	-8%	32µM*
23) O=C(C1CCCN(S(=O)(=O)c2cccc3cccnc23)C1)N1CCc2ccccc21 (stereo not drawn)
    20	63	-6%	-16%	1.2	-22%	-3.0%
24) Cc1cc(C)n(CC(C)NCc2cn[nH]c2-c2cccc3ccccc23)n1 (stereo not drawn)
    26	-7	-1%	-3%	-7.8	9%	-1.2%
25) Cc1ccc(C2CC2C(=O)NNC(=S)Nc2cccc(Cl)c2)cc1 (stereo not drawn)
    5	6	4%	-13%	9.8	?	0.2%
26) O=C(CN1C(=O)COc2ccccc21)N1CCOCC1
    2	0	5%	5%	nt	4%	2.1%
27) O=C(c1cc(COc2ccc3ncccc3c2)on1)N1CCC(O)CC1
    -8	4	3%	2%[15.4 µM]	-4.7	-8%	nt
28) Cn1nc2c3ccccc3n(Cc3ccc(F)cc3)c2nc1=S
    16	7	20%	2%	-1.7	-4%	-3.5%
29) CCOP(=O)(OCC)c1nc(-c2ccccc2Cl)oc1N1CCOCC1
    -17	-6	13%	0%[15.4 µM]	1.8	6%	nt
30) COc1ccc(C(C)=O)cc1CN1C(=O)NC2(CCCCCCC2)C1=O
    -7	-3	5%	2%[15.4 µM]	4.9	-1%	nt

The results go on:
Results follow in this order: TRPV1 PAM	TRPML1 inh	Sfp inh	gsp ag	Menin MLL FP FL	gsp antagonist	ClpP mod
31) Cc1ccsc1C(=CCCN1CCC[C@@H](C(=O)O)C1)c1sccc1C
    nt	3	10%	nt	2.6	4%	0.3%
32) O=C(O)c1cccc(S(=O)(=O)NCCC(c2ccccc2)c2ccccc2)c1
    13	-15	29%	8%[15.4 µM]	-3.6	-20%	0.8%
33) CCc1nnc(NC(=O)CSc2ccc(-c3nc4ccc(C)cc4[nH]3)cn2)s1
    18	8	-23%	9%	10	-24%	?
34) CCN(C(=O)CN1CCOCC1)C1(C)C(=O)c2ccccc2C1=O
    5	-14	0%	-5%[15.4 µM]	-0.5	15%	nt
35) O=C(C/C=N\O)Nc1ccc(Oc2ccccc2)cc1
    -12	3	6%	-3%	2.8	-6%	nt
36) NC(=O)COc1ccc(-c2noc(COc3ccccc3[N+](=O)[O-])n2)cc1
    2	9	17%	-37%	0.3	0%	0.0%
37) COc1ccc(C(=O)C2CCCN(C(=O)c3csc(SC)n3)C2)cc1F (stereo not drawn)
    nt	-8	nt	-41%	nt	nt	0.5%
38) Cc1ccc(NC(=O)NC(=O)CSc2nnc(-c3ccc(OC(F)F)cc3)n2N)c(C)c1
    -2	10	2%	5%[15.4 µM]	-2.1	-5%	0.7%
39) Cc1ccc(S(=O)(=O)N2C(=O)CCC2C(=O)NCc2ccco2)cc1 (stereo not drawn)
    -11	19	-7%	-79%[inhibitor]	1.2	8%	1.7%
40) CSc1c(SCc2ccccc2)cnn(-c2ccccc2)c1=O
    -9	16	9%	5%	6.4	?	-2.3%
41) COC(CNC(=O)c1ccc(CS(=O)(=O)c2ccc(C)cc2)o1)OC
    15	-6	5%	-44%[inhibitor]	-7.5	15%	-1.0%
42) COc1ccc(Nc2cc(=O)n(C3CCCCC3)c(=O)[nH]2)c(OC)c1
    -2	6	1%	-17%	-4.9	1%	0.8%
43) COc1ccc2[nH]c(=O)c(-c3noc(-c4ccc(F)cc4)n3)cc2c1
    -16	21	-17%	?	-3.0	5%	-2.7%
44) Cc1ccc(NC(=O)[C@@H](NC(=O)c2cccc(S(=O)(=O)N3CCOCC3)c2)C(C)C)cc1C
    -14	3	15%	-6%[15.4 µM]	0.5	-11%	-0.2%
45) CC(C)c1nnc(NC(=O)c2nc(S(=O)(=O)Cc3ccc(F)cc3)ncc2Cl)s1
    14	13	-26%	-17%[15.4 µM]	nt	28µM*	nt
46) Cc1ccc(C2OCC3(CO)COC(c4ccc(C)cc4)N23)cc1 (stereo not drawn)
    16	-4	15%	1%	-0.3	1%	0.0%
47) COC(=O)CC1=NN(c2nc3ccccc3s2)C(=O)/C1=C/N(C)C
    10	-5	6%	-33%	8.0	-3%	-0.4%
48) O=C(CCCc1c[nH]c2ccccc12)N1CCOCC1
    -19	9	1%	7%	0.8	7%	-9.4%
49) CN(CC(=O)NCc1ccccc1Cl)CC(=O)Nc1cccc(F)c1
    -6	4	14%	?	1.5	1%	nt
50) Clc1ccc(OCCSc2ncccn2)c2ccccc12
    ?	-6	-19%	19%	5.3	-21%	?
51) CC(NC(=O)CNC(=O)Cc1cccc2ccccc12)c1ccc(S(N)(=O)=O)cc1 (stereo not drawn)
    3	-7	25%	-16%	nt	-7%	-0.2%
52) CCN(c1ccccc1)S(=O)(=O)c1ccc(Oc2ccc(C(C)=O)cc2OC)nc1
    1	4	nt	-13%	nt	-26%	-0.7%
53) Cc1[nH]c2ccccc2c1C(=O)NS(=O)(=O)Nc1ccccc1
    3	7	12%	11%[15.4 µM]	-2.2	-1%	nt
54) CCN(CC(=O)NC1CCS(=O)(=O)C1)C(C)C(=O)Nc1ccc(F)cc1 (stereo not drawn)
    -7	-9	nt	0%	nt	2%	0.2%
